TRPML1 inh: inhibitors of human TRPML1 channel | Q9GZU1 | TRPML1-inducible cells, Ca2+ dye fluorescence, FDSS; hits give low values; inhibition of EC80 agonist-evoked calcium signal | activity change, negative = inhibition, % (no concentration beside the values) | hit rate 0.02% among 390,000; in the data active means activity change below about -50%; inconclusive means about -30% to -50%; inactive means above about -30%;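 further: stimulus is agonist 54-4 at its EC80 concentration; on the % scale 0 is the no-effect control and ±100 the full control effect; compound concentration not given in the record; the text of the record puts the active cut at -80%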
Target sequence (Q9GZU1 whole entry, looked up): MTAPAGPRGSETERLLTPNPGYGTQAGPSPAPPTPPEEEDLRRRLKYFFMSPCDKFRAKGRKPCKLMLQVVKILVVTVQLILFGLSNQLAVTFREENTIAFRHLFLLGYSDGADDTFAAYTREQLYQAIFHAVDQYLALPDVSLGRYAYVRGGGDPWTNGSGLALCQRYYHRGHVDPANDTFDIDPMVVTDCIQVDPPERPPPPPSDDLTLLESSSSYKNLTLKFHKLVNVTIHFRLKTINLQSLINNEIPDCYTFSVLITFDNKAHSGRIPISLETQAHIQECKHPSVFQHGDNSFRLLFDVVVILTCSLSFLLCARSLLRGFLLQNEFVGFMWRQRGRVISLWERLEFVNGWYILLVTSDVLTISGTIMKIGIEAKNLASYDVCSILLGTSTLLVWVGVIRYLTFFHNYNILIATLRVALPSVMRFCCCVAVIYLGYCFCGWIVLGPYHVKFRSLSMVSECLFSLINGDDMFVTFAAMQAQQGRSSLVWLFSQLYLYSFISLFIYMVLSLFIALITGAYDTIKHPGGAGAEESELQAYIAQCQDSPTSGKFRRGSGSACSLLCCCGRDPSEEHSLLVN
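Calcium fluorescence in TRPML1-DL cells induced overnight with Tet: a 110 s read after compound pin addition, then a 110 s antagonist read after challenge with 54-4 at 4 uM final (EC80).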
Menin MLL FP FL: displaces fluorescein MLL peptide from human menin; Fluorescence polarization, fluorescein-MLL peptide displacement from menin; FP activity change, % at 61.4 µM; 290,000 tested, under 10 active; inconclusive = falling polarisation curve, or a change in total fluorescence; inactive = total fluorescence flat and polarisation flat or rising; no compound was filed as active; the % refers to the polarisation; negative = inhibition;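 further: % of control where 0% means no effect; inhibitors lower the polarisation; unlabelled MLL peptide was the positive control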
TRPV1 PAM: potentiators of human vanilloid receptor 1 (TRPV1) | Q8NER1 | TRPV1-expressing cells, Fluo-8 calcium influx, capsaicin EC20 potentiation; host cell line not named in the record; control for the full effect not named in the record | potentiation, % at 8.33 µM | hit rate 0.02% among 320,000 | AID 540277; active means potentiation above 80%; inconclusive means 30% to 80%; inactive means below 30%; further: 0% is about no effect
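Fluo-8 calcium influx in TRPV1-expressing cells, kinetic read (ex 480/em 520 nm). Compound added and read 3 min for agonist activity, followed by capsaicin at EC20 final and 2 min further read for enhancement.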
TRPML1 ag: activates the human TRPML1 channel. TRPML1-expressing cells, Ca2+ dye fluorescence, FDSS; host cell line not named in the record; reference of the full effect not given here. activation, % (concentration not given with the values). hit rate 0.12% among 410,000; in the data active = activation above about 50%; inconclusive = about 30% to 50%; inactive = below about 30%; further: 0% is about no effect; the text of the record puts the active cut at 80%
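Tet-induced TRPML1-DL cells, 1,500 per well, cultured overnight, were loaded with a no-wash Ca2+ dye for 45–90 min. Calcium fluorescence was recorded on the FDSS for 110 s after compound addition, before the EC80 agonist (4 uM 54-4) was added.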
PINK1 expr mod: changes PINK1 expression | PINK1 immunofluorescence, high-content cytometry, 24 h | Potency, µM (titrated, usually from 76.6 µM), inactives show at the highest dose activation (PINK1 increase), hits mostly activators | hit rate 0.2% among 410,000; active = well fitted activation curve with a large enough effect; inconclusive = small, poorly fitted or top-dose-only effect; inactive = flat fitted curve, though single readings scatter; cell line not stated here;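 further: potency means the concentration at half of the fitted maximal effect; % of control where 0% means no effect; nearly all actives have a fitted effect of over 65% in size; a mitochondrial uncoupler was the plate control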
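PINK1 protein level read as immunofluorescence by microplate cytometer in a fixed, stained stable cell line after 24 h exposure to five compound concentrations, with CCCP as control.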
Sfp inh: inhibitors of Bacillus subtilis Sfp phosphopantetheinyl transferase. Q9F4F7. Biochemical Sfp PPTase activity, qHTS. Potency, µM, for inactives: max response, negative = inhibition, hits mostly inhibitors. hit rate 3.5% among 310,000; active means well fitted inhibition curve with a large enough effect; inconclusive means small, poorly fitted or top-dose-only effect, or another doubt; inactive means no such curve, though single readings can be large or run the other way;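 further: the enzyme is Sfp with the accession as filed and its product quenches rhodamine fluorescence; potency means the concentration at half of the fitted maximal effect; 0% = enzyme reaction without inhibitor and -100% = no enzyme wells; top concentration of the series not given in the record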
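Sfp 15 nM + cpd, 15 min RT; start w/ rhodamine-CoA 5 uM, BHQ-2-YbbR 12.5 uM (final); 50 mM Hepes pH 7.6, 10 mM MgCl2, 0.01% NP-40, 0.01% BSA; read 525/598 nm at 0 and 30 min.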
ClpP mod: qHTS Assay for Activators of ClpP | ATP-dependent Clp protease proteolytic subunit (Bacillus subtilis (strain 168)), P80244 | purified B. subtilis ClpP, FRET peptide cleavage, 20 min | Potency, µM (top dose mostly 57.5 µM), without a hit: top-dose activity change, negative = active | hit rate 1.9% among 340,000 | AID 651965, 2013; active = well fitted falling curve with a large enough effect; inconclusive = small, poorly fitted or top-dose-only effect; inactive = no such curve, though single readings can be large or run the other way; further: potency means the concentration at half of the fitted maximal effect; the source files actives as falling curves though it sought activators and does not explain the sign; nearly all actives have a fitted effect of over 65% in size; many hits overshoot -100%
Target sequence (P80244 whole entry, looked up): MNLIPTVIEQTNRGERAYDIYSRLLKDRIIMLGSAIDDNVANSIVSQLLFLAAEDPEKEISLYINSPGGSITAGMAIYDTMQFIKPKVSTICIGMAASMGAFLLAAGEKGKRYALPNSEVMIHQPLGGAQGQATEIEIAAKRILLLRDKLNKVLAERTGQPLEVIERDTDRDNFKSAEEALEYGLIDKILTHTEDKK
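Purified B. subtilis ClpP, 10 microg/mL final in Tris/HCl pH8 with KCl, BSA, glycerol and Tween-20, cleaved an Abz/nitrotyrosine-quenched decapeptide. Fluorescence (ex 320, em 430) was read at 0 and 20 min at room temperature. Delta was normalized to 5.8 microM ADEP and DMSO/no-enzyme controls.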
Numbers without * were called inactive; ? = inconclusive; . = no result given; & = joins results of further samples; [ ] = another dose, or the depositor's remark.

SMILES	TRPML1 inh	Menin MLL FP FL	TRPV1 PAM	TRPML1 ag	PINK1 expr mod	Sfp inh	ClpP mod
O=C(O)c1cccc(NC(=O)c2cccc(NC(=O)C3CCCO3)c2)c1 (centres undefined)	-4	2.2	1	1.2	3.3%[38.3 µM]	18%	-1.7%
Cc1ccc2c(=O)cc(C(=O)Nc3ccc(S(=O)(=O)Nc4onc(C)c4C)cc3)oc2c1	-10&-10	-2.7	8	-0.6&0.8	0.2%&3.8%	11%	1.0%&-0.7%
Cc1ccc(Cl)cc1NC(=O)c1ccccn1	15	0.1	-4	0.3	3.4%	-15%	-1.1%
Cc1noc(C)c1C(=O)OCC(=O)NCCc1ccc(S(N)(=O)=O)cc1	11	.	.	-0.3	1.3%	.	0.2%
COc1ccc(OC)c(NC(=O)CSc2ccnc(=O)[nH]2)c1	2	.	.	-0.3	-0.6%	.	0.4%
CCN1CCN(CC(=O)Nc2ccc(S(=O)(=O)N3C(C)CCCC3C)cc2)CC1 (centres undefined)	22	.	5	0.4	-1.6%	0%	.
CC1CC1C(=O)OCC(=O)NC(=O)NC12CC3CC(CC(C3)C1)C2 (centres undefined)	8	-0.7	0	-0.7	4.6%	4%	.
Cc1cccc([C@@H]2[C@@H]3C(=O)N(Cc4ccccc4)C(=O)[C@@H]3[C@]3(Cc4ccccc4)C(=O)N(c4cccc(Cl)c4)C(=O)N23)c1	-3	.	-11	-0.2	0.3%	.	1.6%
CC(=O)Nc1c2c(nn1-c1ccc(C)cc1C)CSC2	3	3.9	-1	-0.3	.	-28%	-2.7%
Nc1nc(C(F)(F)F)cc(=O)n1N	-26	-0.5	-5	0.0	-2.5%	10%	.
COC(=O)c1ccc2c(=O)n(CC3CCCO3)c(=S)[nH]c2c1 (centres undefined)	11	1.6	9	-0.5	0.2%[38.3 µM]	-8%	-0.5%
COc1ccccc1CNC(=O)c1ccccc1OC	28	-0.3	1	1.2	.	12%	-6.4%
Cc1c(NC(=O)c2ccc(NS(=O)(=O)c3ccc(F)c(F)c3)cc2)c(=O)n(-c2ccccc2)n1C	-4	.	.	0.0	1.2%	.	-2.4%
COc1cc(C(c2sc3nc(C)nn3c2O)N2CCN(c3ccccc3)CC2)cc(OC)c1OC (centres undefined)	-7	1.6	10	0.0	3.1%	43%[activator]	-1.6%
CN1CCCN(c2cc(-c3ccc4ccccc4c3)nc3ccnn23)CC1	.	.	.	-0.2	12%	.	1.7%

As entered above.
Result of COc1ccc(OC)c(NC(=O)CSc2ccnc(=O)[nH]2)c1 in TRPML1 ag: -0.3
Result of Cc1ccc2c(=O)cc(C(=O)Nc3ccc(S(=O)(=O)Nc4onc(C)c4C)cc3)oc2c1 in PINK1 expr mod: 0.2%&3.8%
Result of CCN1CCN(CC(=O)Nc2ccc(S(=O)(=O)N3C(C)CCCC3C)cc2)CC1 (centres undefined) in PINK1 expr mod: -1.6%

6 entries out of the list above, ordered by their value in Menin MLL FP FL, highest first.
SMILES	TRPML1 inh	Menin MLL FP FL	PINK1 expr mod	Sfp inh
O=C(O)c1cccc(NC(=O)c2cccc(NC(=O)C3CCCO3)c2)c1 (centres undefined)	-4	2.2	3.3%[38.3 µM]	18%
COc1cc(C(c2sc3nc(C)nn3c2O)N2CCN(c3ccccc3)CC2)cc(OC)c1OC (centres undefined)	-7	1.6	3.1%	43%[activator]
COc1ccccc1CNC(=O)c1ccccc1OC	28	-0.3	.	12%
Nc1nc(C(F)(F)F)cc(=O)n1N	-26	-0.5	-2.5%	10%
CC1CC1C(=O)OCC(=O)NC(=O)NC12CC3CC(CC(C3)C1)C2 (centres undefined)	8	-0.7	4.6%	4%
Cc1ccc2c(=O)cc(C(=O)Nc3ccc(S(=O)(=O)Nc4onc(C)c4C)cc3)oc2c1	-10&-10	-2.7	0.2%&3.8%	11%

Continued:
SMILES	TRPML1 inh	Menin MLL FP FL	TRPV1 PAM	TRPML1 ag	PINK1 expr mod	Sfp inh	ClpP mod
O=C(Cn1cnc2c(NC(=O)OCc3ccccc3)ncnc21)NCc1ccccn1	-9	.	2	-0.4	0.3%	.	-3.8%
O=C1Nc2ccccc2N(O)N1c1cc(-c2ccccc2)[nH]n1	14	0.4	4	2.0	2.7%	14%	0.3%
Cc1nn2c(C)c(C(=O)Nc3ccccc3)cnc2c1C#N	0	24	-14	-0.2	.	14%	-11%
COc1cc(CC(=O)OCC(=O)NC2CC2)cc(OC)c1OC	11	1.3	-2	-0.3	2.0%	8%	.
O=[N+]([O-])c1ccc(N2CCC(O)CC2)nc1	-7	5.1	-1	0.2	-3.1%	0%	.
C=CCn1c(SCC(N)=O)nnc1-c1cnccn1	0	9.2	-14	-0.9	2.3%	3%	.
Cc1ccc(C(=O)N2CCc3cc(CNC(=O)COc4ccccc4)ccc32)cc1	27	.	.	2.6	6.7%	.	-1.0%
CCN(CC)S(=O)(=O)c1ccc2c(c1)N(CC(=O)N1CCN(c3ccc(Cl)cc3)CC1)C(=O)CO2	7	.	.	-0.1	-1.0%	.	-1.5%
CCOC(=O)N1CCC(Nc2ncnc3c2cnn3-c2ccc(Cl)cc2)CC1	-2	-2.3	0	0.0	3.1%	18%	0.0%
COCCOC(=O)c1sc(=S)n(CCOC)c1N	-18	?	12	2.0	?	25µM*	-3.0%
Cn1c(=O)c2c(nc3n(-c4ccc(O)cc4)c(-c4ccc(Br)cc4)cn23)n(C)c1=O	11	.	.	-0.4	7.4%	.	-5.3%
O=C1CN(C(=O)c2ccccc2)c2ccccc2N1	8	-0.8	-2	0.1	-1.6%	-3%	0.7%
COc1ccc(CCNC(=O)c2cc(-c3ccccc3)nc3ccccc23)cc1OC	-10	.	.	1.8	0.0%	.	-9.1%
CS(=O)(=O)N(CC(=O)N1CCCC1)C1CCCCC1	38	.	.	-0.1	2.6%	.	-5.9%
CCOC(=O)C1CCN(Cc2ccc(OCc3ccccc3)c(OC)c2)CC1	2	0.8	?	-0.3	-0.7%	13%	.
Cc1cc(C)c2nc(N3C(=O)C(O)=C(C(=O)c4ccco4)C3c3cccc(O)c3)sc2c1 (centres undefined)	14	.	-3	0.5	5.3%	.	0.2%
COc1ccccc1CN1CC(C(=O)NCc2nccn2C)CCC1=O (centres undefined)	15	.	?	0.6	-0.4%	1%	-0.3%
OC(CNCCc1ccc(C(F)(F)F)cc1)COc1ccc2ccccc2c1 (centres undefined)	-7	3.7	-9	-0.1	-6.0%	18µM*	-1.1%
CC(CCc1ccccc1)NC(=O)C1CCN(S(=O)(=O)N2CCCCC2)CC1 (centres undefined)	-2	0.0	19	0.2	-0.2%[38.3 µM]	18%	-2.7%
C=C1C(=O)[C@]23C[C@H]1CCC2[C@@]1(C)C(C[C@@H]3O)[C@](C)(C(=O)O)C[C@H](O)[C@@H]1O (some centres undefined)	15	.	.	0.1	-0.3%	.	0.2%
Cc1ccccc1-c1nnn(Cc2cccc(S(=O)(=O)N3CCOCC3)c2)n1	-3	.	-10	-0.5	1.8%	.	1.1%
